Screening data: PubChem, Broad Institute
STK33 kinase inh: inhibitors of purified STK33 kinase, primary screen, biochemical, ADP-Glo luminescence, homogeneous, cell-free; Serine/threonine-protein kinase 33 (Homo sapiens), Q9BYT3; MBP phosphorylation; inhibition, % at 10 µM; 320,000 compounds, 0.073% hits; AID 2661, 2010;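 active means inhibition at or above 25%, using the most active replicate where run in duplicate; inactive means inhibition below 25%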
Target sequence (Q9BYT3 whole entry, looked up): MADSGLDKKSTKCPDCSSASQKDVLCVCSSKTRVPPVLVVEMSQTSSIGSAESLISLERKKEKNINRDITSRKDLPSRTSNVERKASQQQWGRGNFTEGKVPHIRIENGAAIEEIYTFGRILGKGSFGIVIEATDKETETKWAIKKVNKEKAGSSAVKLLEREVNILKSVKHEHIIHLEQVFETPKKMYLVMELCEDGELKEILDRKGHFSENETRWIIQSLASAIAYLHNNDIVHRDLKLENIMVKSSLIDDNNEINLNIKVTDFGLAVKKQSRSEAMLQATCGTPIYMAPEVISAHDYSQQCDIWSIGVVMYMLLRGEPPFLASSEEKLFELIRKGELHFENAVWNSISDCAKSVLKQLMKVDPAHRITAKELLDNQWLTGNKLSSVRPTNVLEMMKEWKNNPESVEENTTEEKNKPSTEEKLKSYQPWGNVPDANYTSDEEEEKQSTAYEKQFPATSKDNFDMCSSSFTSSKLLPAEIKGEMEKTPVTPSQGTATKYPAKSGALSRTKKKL
* marks the source's active call; other numbers are inactive results. Some of the compounds tested, and most or all hits are left out here.

SMILES	STK33 kinase inh
Cc1ccc2cc(CN(CCN(C)C)C(=S)Nc3ccccc3)c(=O)[nH]c2c1C	0.0
O=C(COc1cccc(C(F)(F)F)c1)NNC(=O)Cn1c(=O)cnc2ccccc21	-0.6
O=C(Cn1nnc(-c2cccs2)n1)N1CCOCC1	-0.8
CCCCCCCCN1[C@@H](CC(=O)OCC)c2ccc(C(F)(F)F)cc2S1(=O)=O	0.2
COc1ccc(-c2c(C)c3cc(O)ccc3oc2=O)cc1OC	2.6
COc1ccc(OC)c(C(c2nnnn2CCc2ccccc2)N2CCC(C(N)=O)CC2)c1 (configuration not stated)	-1.5
CCC(C)(C(=O)NC1CCCCC1)N(Cc1cccs1)C(=O)Cc1cccs1 (configuration not stated)	-3.0
CCC1CCCCN1Cc1cc(OC)c(O)c([N+](=O)[O-])c1 (configuration not stated)	-0.5
COCCCNC(=O)CC(=O)N/N=C\c1ccc(SC)cc1	-4.3
O=C(CSc1ncccn1)N/N=C/c1ccc(OC2CSC2)cc1	0.9
COc1cc(CNC2CCC(C)C2)cc(OC)c1 (configuration not stated)	0.5
O=C(NCc1ccc2c(c1)OCO2)c1cc2ccccc2o1	-0.8
Cc1ccc(N(C(=O)c2csnn2)C(C(=O)NC2CCCCC2)c2ccncc2)cc1 (configuration not stated)	-1.0
Cc1cccc(NC(=S)N2CCN(S(=O)(=O)c3ccc(F)cc3)CC2)c1	0.5
CCOC(=O)Cc1nn(CC)c(=O)c2ccccc12	-1.7
CCOc1ncccc1C(=O)Nc1ccc(-c2ccc3nnc(C)n3n2)cc1	-1.1
CCOC(=O)/C(C#N)=C1/SC(CCO)C(=O)N1c1ccccc1 (configuration not stated)	7.9
OCCN(CCO)CC(O)COc1ccc(C23CC4CC(CC(C4)C2)C3)cc1 (configuration not stated)	-2.1
CCN1C(=O)[C@@H]2[C@H](C1=O)[C@@H]1C(=O)Nc3ccccc3C(=O)N1[C@@H]2c1ccccc1	-0.5
CC(C)(C)n1nnnc1C(c1cccs1)N1CCN(c2ccccc2)CC1 (configuration not stated)	-0.9
CCCCNC(=O)c1onc(CSc2cc(C)ccc2C)c1C(=O)O	-1.0
CC(C)Cn1cc(F)c(=O)n(CC(C)C)c1=O	-0.1
O=C(Nc1ccc2ncccc2c1)c1ccccc1	0.4
Cc1ccc(-n2nc3c(c2NC(=O)c2c(-c4ccccc4Cl)noc2C)CS(=O)(=O)C3)c(C)c1	-0.1
COc1cc(/C=C2\SC(=S)N(NC(=O)c3ccc(O)cc3)C2=O)ccc1O	4.3
CS(=O)(=O)N1CCC(Oc2ccccc2C(=O)N2CCC[C@H]2CO)CC1	-3.2
Cc1ccc(C)c(OCC(=O)NC2CCCCCC2)c1	-1.5
CCCCn1c(CN2CCN(C(=O)OCC)CC2)nc2c1c(=O)n(C)c(=O)n2C	0.9
COc1ccc(Cl)cc1-c1nc(-c2ccc(Br)o2)no1	-0.8
O=C(Nc1nc2c(s1)C(=O)CCC2)c1ccccc1	-0.5
O=CNC1CCCc2c1[nH]c1ccc(Cl)cc21 (configuration not stated)	0.7
COCCn1c(SCC(=O)N2CCCCCC2)nc2c([nH]c3ccccc32)c1=O	-1.7
CCOc1nc(SCCOc2ccc(Cl)cc2Cl)nc(N(C)C)n1	-0.8
COc1ccc(O)c(C(=O)CC(=O)c2ccc(F)cc2)c1	0.6
CC[C@H](C)/C=C(C)/C=C/C(=O)Cc1cc(O)c(C)c(O)c1C=O	-0.6
CC(C)c1ccc(O)c(NC(=S)NC(=O)CCc2ccccc2)c1	-1.9
CC(=O)c1ccc(N2CCN(C(=O)/C=C/c3ccc(S(=O)(=O)N4CCOCC4)cc3)CC2)cc1	0.5
CC(=O)Nc1ccc(NC(=O)Cn2nc(C(=O)Nc3ccc(C)cc3)ccc2=O)cc1	1.8
Cc1nc(C)c(C(=O)C2=C(O)C(=O)N(CCCn3ccnc3)C2c2ccc(Cl)cc2)s1 (configuration not stated)	0.2
Cc1sc2nc(CSc3ccccc3)nc(NCCN(C)C)c2c1C	5.6
O=C(NC1CCCC1)C(c1ccccn1)N(C(=O)c1csnn1)c1ccccc1 (configuration not stated)	1.1
CC(C)COc1ccc(/C(O)=C2/C(=O)C(=O)N(CCN(C)C)C2c2ccncc2)cc1 (configuration not stated)	-0.8
CC(Nc1nc(C(F)(F)F)nc2ccccc12)c1cccs1 (configuration not stated)	0.5
Cc1cccc(N(Cc2cc3ccccc3[nH]c2=O)S(C)(=O)=O)c1	0.8
CCSc1nnc2ccc(-c3ccc(C)cc3)nn12	1.0
O=C(NN=C1CCCCCC1)c1c[nH]c2ccccc12	-1.4
CS(=O)(=O)N(CC(=O)Nc1ccccc1-c1ccccc1)c1cccc(F)c1	-1.7
COc1ccccc1N1CCN(C(=S)NC(=O)/C=C/c2ccc(F)cc2)CC1	3.4
O=C(O)CCCC(=O)NCc1ccccn1	0.2
Cc1c(CN2CCN(CC(C)C)C(CCO)C2)[nH]c2ccc(Cl)cc12 (configuration not stated)	-1.3

Four of the compounds above, field by field:
molecule: CCSc1nnc2ccc(-c3ccc(C)cc3)nn12
  STK33 kinase inh: 1.0
molecule: O=C(NN=C1CCCCCC1)c1c[nH]c2ccccc12
  STK33 kinase inh: -1.4
molecule: CS(=O)(=O)N(CC(=O)Nc1ccccc1-c1ccccc1)c1cccc(F)c1
  STK33 kinase inh: -1.7
molecule: COc1ccccc1N1CCN(C(=S)NC(=O)/C=C/c2ccc(F)cc2)CC1
  STK33 kinase inh: 3.4

(next part)
SMILES	STK33 kinase inh
CN(C)CCNC(=O)C(=O)Nc1cc2c3c(c1)CCC(=O)N3CCC2	-1.7
CCN1CCN(C(=O)CN(c2ccc(F)cc2)S(=O)(=O)c2ccc(OC)c(OC)c2)CC1	-1.0
COc1ccccc1N1CCN(C(=O)c2sc3nc4n(c(=O)c3c2C)CCC4)CC1	-0.1
CC(NC(=O)COC(=O)C1=COCCO1)C12CC3CC(CC(C3)C1)C2 (configuration not stated)	1.0
Cc1ccc(S(=O)(=O)N2CCN(C(=O)COC(=O)c3ccccn3)CC2)c(C)c1	-1.0
Cc1cc(NC(=O)CCC(=O)N(C2CC2)C2(C(=O)NC3CCCC3)CCC(C)CC2)no1 (configuration not stated)	-1.1
C/C(=N\Nc1nc(C)cc(-c2ccccc2)n1)c1ccc(C)o1	0.1
N#Cc1c(N)n(-c2ccccc2)c(=O)c2cc([N+](=O)[O-])ccc12	0.2
Cn1c(=O)[nH]c(=O)c2c1nc(Br)n2CC(O)COc1ccc(Cl)cc1 (configuration not stated)	-0.7
COc1ccc(-n2c(=S)[nH]c3sc4c(c3c2=O)CCN(C)C4)cc1	-1.8
CCOc1cccc2sc(N(CCN(C)C)C(=O)c3ccc4ccccc4c3)nc12	2.4
N#CC1=C(N)SC(N)=C(C#N)C1c1ccoc1	7.3
O=c1oc2ccc(Cl)cc2cc1-c1nnc(Nc2cccc(C(F)(F)F)c2)s1	-1.5
CC(C)CCNC(=O)CCCc1ccccc1	0.2
O=C(CSc1nc2ccccc2s1)Nc1ncccn1	-3.0
COc1ccc(NC(=O)CSc2ccccc2)cc1S(=O)(=O)N1CCCCC1	0.0
COC(=O)C(NC(=O)CSc1nc(N)cc(=O)[nH]1)c1ccccc1 (configuration not stated)	-1.0
CN1CCN(c2ccc([N+](=O)[O-])cc2C(=O)N2CCCCC2)CC1	0.1
CCOC(=O)c1[nH]c(C)c(C(=O)NC2CCCC2)c1C	0.2
Cc1cc(C)nc(/N=C(/NC(=O)Nc2ccc(Cl)c(Cl)c2)Nc2cccc(Cl)c2)n1	-1.1

Reprinted at random: two compounds from above
SMILES	STK33 kinase inh
Cc1cc(C)nc(/N=C(/NC(=O)Nc2ccc(Cl)c(Cl)c2)Nc2cccc(Cl)c2)n1	-1.1
CC(C)CCNC(=O)CCCc1ccccc1	0.2

The list goes on:
SMILES	STK33 kinase inh
CC(C)Cn1c(N)c(C(=O)COC(=O)c2cccnc2Cl)c(=O)n(C)c1=O	-0.5
CCOc1ccccc1C(=O)NC1CCNCC1	0.4
COc1ccccc1-n1c(SCC(=O)OC(C)C)nc2cccnc21	-1.6
COc1ccc(/C=C/C(=O)c2ccc(Cl)s2)cc1O	4.0
Clc1ccc(-c2ccnc(-n3cccc3)n2)s1	-1.4
O=C(Nc1ccccc1)c1ccccc1NC(=O)C1CCCCC1	-1.9
CCC1CCCCN1C(=O)c1cc(COc2ccc3ncccc3c2)on1 (configuration not stated)	-1.5
CN1CCN(C(=O)/C=C/c2ccc(C#N)cc2)CC1	-1.4
O=C(N/N=C/c1c(F)c(F)c(F)c(F)c1F)c1ccc(Cn2cc(Br)cn2)o1	-0.5
O=C(NC1C=CS(=O)(=O)C1)c1sc2ccccc2c1Cl (configuration not stated)	1.2
O=C(NCc1ccccc1Cl)c1ccc(Cn2cc(C(F)(F)F)ccc2=O)cc1	-0.6
O=C(Nc1ccc(Cl)c(S(=O)(=O)N2CCOCC2)c1)c1ccc(OCC2CCCO2)cc1 (configuration not stated)	1.9
S=c1[nH]c2cc3ccccc3cc2[nH]1	3.8
Cc1cccc(NC(=O)c2ccc(-n3ccnc3)nc2)c1	0.4
O=C(N/N=C/c1cccc([N+](=O)[O-])c1)C1CC(=O)N(c2ccc(Br)cc2)C1 (configuration not stated)	0.0
COc1ccc(Cc2nc3ccc(C(=O)N4C[C@@H](C)O[C@@H](C)C4)cc3o2)cc1OC	1.9
COc1ccc(OC)c(CN2CCN(C(=O)c3cc(S(=O)(=O)Nc4ccccc4OC)ccc3C)CC2)c1	0.3
COc1cc(CSc2nc(-c3ccccc3)cc(=O)[nH]2)cc(OC)c1	-1.7
COc1ccc(C2(C)NC(=O)N(CC(=O)Nc3ccc(Br)c(C)c3)C2=O)cc1OC (configuration not stated)	-1.6
CCOC(=O)c1c(NC(=O)COc2cccc3c2CCN(Cc2ccc(F)cc2)C3=O)sc2c1CCC2	0.5
COc1ccc2c(c1)c1nnc(SCC(=O)N3C(C)CCCC3C)nc1n2C (configuration not stated)	1.3
c1ccc(Nc2cccc(Nc3ccccc3)c2)cc1	0.1
CC1CCCCC1NC1=NCCCS1 (configuration not stated)	-0.4
O=C(NCC1CCCO1)Nc1ccc(Cl)cc1 (configuration not stated)	-0.6
COc1ccc(C)cc1S(=O)(=O)N(C)CC(=O)Nc1ccccc1	0.1
CC(C)c1ccc(S(=O)(=O)c2n[nH]n3c2nc(=O)c2ccccc23)cc1	-1.9
O=C(CSc1nc2ccccc2o1)N1c2ccccc2Sc2ccccc21	-1.0
CCCCC(=O)Nc1ccc(N2CCCC2)cc1	-1.1
O=C(O)C1CCCN(C(=O)NCc2ccccc2)C1 (configuration not stated)	-2.4
CCc1ccc(C(=O)OCC(=O)NCC(F)(F)F)cc1	-0.1
CCOC(=O)N1CCN(c2cc(=O)n(-c3cccc(Br)c3)c(=O)[nH]2)CC1	4.5
COc1ccc(-c2c(C#N)c(SCC(=O)c3cc4ccccc4oc3=O)nc(C)c2C(=O)Nc2ccccc2)cc1	-3.5
COc1ccc2nc(C)cc(N3CCN(c4ccccc4)CC3)c2c1	1.2
COc1cccc(C2C(C#N)=C(N)N(N(C)C)C3=C2C(=O)CC(C)(C)C3)c1 (configuration not stated)	-0.4
CC1CN(C(=O)c2cccc(C(=O)N3CC(C)OC(C)C3)c2)CC(C)O1 (configuration not stated)	-3.4
CC1=CC(c2ccccc2)n2nc(N)nc2N1 (configuration not stated)	-0.6
CC[C@H](C)C(C(=O)N1CCN(C(=O)OC(C)(C)C)CC1)n1cc(C(Cc2ccc(O)cc2)NC(=O)OC(C)(C)C)nn1 (some centres not stated)	-2.8
CC(C)c1ccc(OCC(=O)Nc2ccncc2)cc1	1.0
COc1ccc(C(=O)ON=C2c3ccccc3-c3ccccc32)cc1OC	-1.8
Cc1c(N=C/C=C/c2ccccc2)c(=O)n(-c2ccccc2)n1C	-0.9
CCc1cc(=O)oc2c3c(cc(OCC(=O)NCc4ccccn4)c12)OC(C)(C)CC3	-0.1
COc1ccccc1N1CCN(Cc2nc(-c3ccc(F)cc3)oc2C)CC1	0.1
COC(=O)CC1C(=O)NCCN1C(=O)CSc1nc2ccccc2o1 (configuration not stated)	-1.6
CCOc1ccc2nc(NC(=O)C3(C)CC3(Br)Br)sc2c1 (configuration not stated)	-1.3
CC(C)Cc1nnc(NC(=O)CCC(=O)N2CCN(Cc3ccc(Cl)cc3)CC2)s1	-0.4
Cc1c(N2C(=O)/C(=C/c3cccc4ccccc34)SC2=S)c(=O)n(-c2ccccc2)n1C	-0.5
O=C(Cn1ncc2c1-c1ccccc1OC2)Nc1nc2ccccc2s1	-0.3
CC(=O)N1c2ccccc2Nc2ccccc21	0.3
NC(=O)c1cccnc1	-1.3
COCCCNC(=O)c1ccc([N+](=O)[O-])c(Cl)c1	1.1

Among those listed so far, these have a tert-butyl group.
SMILES	STK33 kinase inh
CC(C)(C)n1nnnc1C(c1cccs1)N1CCN(c2ccccc2)CC1 (configuration not stated)	-0.9
CC[C@H](C)C(C(=O)N1CCN(C(=O)OC(C)(C)C)CC1)n1cc(C(Cc2ccc(O)cc2)NC(=O)OC(C)(C)C)nn1 (some centres not stated)	-2.8

Following part:
SMILES	STK33 kinase inh
CCOc1ccc2nc(SC(CC)C(=O)Nc3cc(C)on3)sc2c1 (configuration not stated)	-2.0
COc1ccc(N(C(=O)c2cccnc2)S(=O)(=O)c2ccc3c4c(cccc24)C(=O)N3C)cc1	-1.1
O=c1c2ccccc2[nH]c(=S)n1-c1cccc(S(=O)(=O)N2CCCC2)c1	-0.5
CCCN1CNC(=S)N(c2ccccc2OCC)C1	0.6
Cc1ccc(S(=O)(=O)N2CCN(C(=O)N3CCOCC3)C2C(C)C)cc1 (configuration not stated)	-2.2
